Sa growth inh: inhibitors of Staphylococcus aureus growth at 42 °C; S. aureus RN4220 growth, OD600, 20 h; stronger effect = lower value; AID 720641; relative growth, % (concentration not given with the values); hit rate 0.53% among 170,000;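 active = growth at 42 °C up to 50% and 20 or more points under that at 30 °C, or under 10% at both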;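 also: 300 nL library stock went into each well; scaled to the means of positive and negative controls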
HCMV UL50-53 inh: inhibitors of HCMV UL50-UL53 nuclear egress complex interaction; AID 1918969; hit rate 0.15% among 190,000; HTRF UL50-UL53 interaction, normalized percent inhibition; inhibition, % (concentration not given with the values);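 active = both replicates at 50% or more, plus weaker picks with an unusually low signal ratio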;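 also: stock transfer was 100 nL into about 20 µL; 0% = negative control wells and 100% = wells with untagged competitor protein; inactives centre near -12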
GIV-Gai inh: blocks GIV peptide binding to rat Galpha-i3; AID 1224905; P08753; hit rate 0.42% among 210,000; percent of control (FP), % (no concentration beside the values); Galpha-i3/FITC-GIV peptide fluorescence polarization, 90 min; stronger effect = lower value; scaled: aluminum fluoride 0%, vehicle 100%;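 active = replicate mean at 85% of control or lower, very high polarization wells dropped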;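 also: wells of about 15 µL received 100 nL stock; the first replicate is given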
Target sequence (P08753 whole entry, looked up): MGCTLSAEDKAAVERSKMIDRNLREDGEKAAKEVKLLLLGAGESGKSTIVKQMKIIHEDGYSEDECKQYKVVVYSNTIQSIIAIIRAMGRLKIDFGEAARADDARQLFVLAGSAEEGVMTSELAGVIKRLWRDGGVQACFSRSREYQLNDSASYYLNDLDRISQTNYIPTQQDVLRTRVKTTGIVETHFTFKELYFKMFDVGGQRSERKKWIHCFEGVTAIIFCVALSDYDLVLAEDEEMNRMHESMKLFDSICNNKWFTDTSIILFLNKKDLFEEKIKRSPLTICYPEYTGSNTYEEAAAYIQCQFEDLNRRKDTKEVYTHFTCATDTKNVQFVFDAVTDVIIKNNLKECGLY
Sa growth inh second temp: also measured in Sa growth inh; calls as there; relative growth, %; measured here: growth at 30 °C;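 optical density after 20 h as mean of two plates; 100% = untreated growth and lower means inhibition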
Active calls of the source: *; x = no result given.

SMILES	Sa growth inh	Sa growth inh second temp	HCMV UL50-53 inh	GIV-Gai inh
CC1(C)O[C@H]2[C@@H](O1)[C@@H](C(=O)Nc1ccccc1O)O[C@@H]1OC(C)(C)O[C@@H]12	99	92	9	107
O=C(NC(C(=O)NC1=NCCS1)C12CC3CC(CC(C3)C1)C2)C1CCCCC1 (stereo not given)	105	93	-11	105
Cc1cc(Cl)ccc1OCC(=O)NCCOc1nc(N(C)C)nc(N2CCOCC2)n1	88	93	-12	102
COc1cccc(C(=O)NCCCn2ccnc2)c1	108	94	-17	x
O=C(NC1CCN(Cc2ccccc2)CC1)c1ccc(Cn2c(=O)c(=O)[nH]c3cccnc32)cc1	x	x	-10	103
Cc1c(C)n(C)c2ccc(C(=O)NCc3ccc(Cl)cc3)cc12	x	x	-14	111
OC(c1ccncc1)c1c[nH]c2ccccc12 (stereo not given)	119	92	45	102
COc1ccc(/C=N/c2nnc(SC)s2)c(O)c1	94	89	-22	103
O=C(Nc1cccc(-c2nn3cnnc3s2)c1)c1cccnc1	89	51	x	101
O=c1[nH]c(-c2ccccc2)nnc1/C=C(\O)c1cccs1	102	91	-10	223
CC1CCCC(C)N1C(=O)Cn1cc(/C=C2/C(=O)N(C)c3ccccc32)c2ccccc21 (stereo not given)	89	87	x	107
O=C(/C=C/c1ccc(Br)cc1)Nn1c(-c2cccc([N+](=O)[O-])c2)nc2ccccc2c1=O	x	x	7	104
Cc1ccc(O)c(N/C=C2/CCCC2=O)c1	83	84	x	148
CC1=C(C#N)/C(=C/Nc2ccc(F)cc2)CC(=O)N1	x	x	-28	103
COc1ccc(C(=O)N(CCCCN2C(=O)c3ccccc3C2=O)c2ccc(C)cc2)cc1	111	82	x	100
N#CCN(CC#N)C(=O)C1c2ccccc2Oc2ccccc21	103	85	-14	107
Cc1cccc(-c2cc(N)n(-c3ccccc3)n2)c1	110	103	-31	x
Cn1nc(C(=O)NCc2ccc(F)cc2)c2c1CCN(S(=O)(=O)c1cccc3nsnc13)C2	x	x	-90	115
COC(=O)CNC(=O)c1ccc(COC(C)=O)cc1	108	99	-10	x
CCOCc1[nH]c(=S)[nH]c(=O)c1Cc1ccc(OCC)cc1	101	92	-31	98
O=C1c2cccc3cccc(c23)C(=O)N1CC1CCN(CC(O)COc2ccc(Cl)cc2)CC1 (stereo not given)	x	x	-22	104
N#Cc1ccc(CSc2n[nH]c(=O)n2CCc2ccccc2)cc1	109	96	1	x
COc1ccc(-c2nn(C)c3sc(C(=O)NCCN4CCN(c5ccccc5F)CC4)cc23)cc1OC	83	77	-23	105
CSc1ncc(Cl)c(C(=O)Nc2c(C(=O)Nc3cccc(Cl)c3)oc3ccccc23)n1	102	86	-8	97
CCc1ccc(NC(=O)CCS(=O)(=O)c2ccc3c(c2)n(C)c(=O)c(=O)n3C)cc1	93	87	-11	96
CC1(C)C(=O)N(CC(=O)Nc2ccccn2)c2ccccc21	x	x	-8	101
CC(C)Sc1nnc2n1CCN2c1ccccc1	x	x	-18	99
CCc1cccc2c(C(=O)C(Sc3nnc(CN4CCCC4=O)o3)c3ccccc3)c[nH]c12 (stereo not given)	98	61	-21	x
CCOC(=O)c1nc(Nc2cc(OC)cc(OC)c2)c2ccccc2n1	x	x	-7	106
O=C(CN1C(=O)C2CCCCN2c2ccc(S(=O)(=O)N3CCCCC3)cc21)N1CCCCC1 (stereo not given)	x	x	-13	101

Compound profiles, as listed above. Values in the order: Sa growth inh | Sa growth inh second temp | HCMV UL50-53 inh | GIV-Gai inh
N#CCN(CC#N)C(=O)C1c2ccccc2Oc2ccccc21 is listed with 103 | 85 | -14 | 107
CCc1ccc(NC(=O)CCS(=O)(=O)c2ccc3c(c2)n(C)c(=O)c(=O)n3C)cc1 is listed with 93 | 87 | -11 | 96
CC(C)Sc1nnc2n1CCN2c1ccccc1 is listed with x | x | -18 | 99
COc1ccc(-c2nn(C)c3sc(C(=O)NCCN4CCN(c5ccccc5F)CC4)cc23)cc1OC is listed with 83 | 77 | -23 | 105
CCOCc1[nH]c(=S)[nH]c(=O)c1Cc1ccc(OCC)cc1 is listed with 101 | 92 | -31 | 98

(more compounds)
SMILES	Sa growth inh	Sa growth inh second temp	HCMV UL50-53 inh	GIV-Gai inh
CC(=O)N1CCc2cc(NC(=S)NC3CCCCCC3)ccc21	98	96	-8	101
CC1=C(C(=O)Nc2ccc(C)cc2C)C(c2ccccc2)n2ncc(C(=O)Nc3ccccc3)c2N1 (stereo not given)	94	94	2	102
CCS(=O)(=O)c1nc2ccccc2n1CC(=O)Nc1ccccc1C(=O)OC	95	90	-36	105
CCCCN(CCCC)CC(O)Cn1cc(/C=C/C(=O)c2ccccc2)c2ccccc21 (stereo not given)	116	84	-16	137
Cc1ccc2[nH]cc(C(c3ccccc3)c3ccc(Cl)s3)c2c1 (stereo not given)	89	84	-8	105
CCC(=O)Oc1cccc(N2C(=O)C3C4C=CC(C3C2=O)C2C(=O)N(c3cccc(OC(=O)CC)c3)C(=O)C42)c1 (stereo not given)	x	x	-3	101
COC(=O)c1ccc(COc2ccccc2OC)o1	69	86	x	111
Cc1cc(=O)n2[nH]c(CN(c3ccc(F)cc3)S(=O)(=O)c3ccccc3)nc2n1	x	x	-14	103
CC1(C)C=Cc2c(ccc3ccc(=O)oc23)O1	94	95	-47	114
COc1ccc(C(=O)n2nc(N)c3cc4ccc(C)cc4nc32)cc1OC	105	88	-25	105
CC1CCCCC1NC(=O)Cn1ncc2c(=O)oc3ccccc3c21 (stereo not given)	92	81	x	97
Cc1ccc(N2CC(NC(=O)Nc3ccc(C(N)=O)cc3)CC2=O)cc1C (stereo not given)	97	101	-13	100
OC12CC3CC(C1)C1(NCCS1)C(C3)C2 (stereo not given)	115	115	-9	98
O=C(CC1CCCCC1)c1c(O)c2ccccc2oc1=O	38	62	x	100
Cn1ccnc1Sc1cnc(SCc2ccc(Cl)cc2)nc1-c1ccccc1	99	72	-29	101
Cc1ccccc1CN1c2ccccc2-c2nc(SCC(=O)c3ccc(Cl)cc3)ncc2S1(=O)=O	83	88	x	101
Cc1c(C(=O)N2CCC(C)CC2)c(S(=O)(=O)NCc2ccc(Cl)cc2)c(C)n1C	137	100	x	110
CCc1ccc(NC(=O)Cn2ncc3c2-c2ccccc2OC3)cc1	104	89	x	100
O=c1nc2c(-c3ccc(Cl)cc3)n[nH]n2c2ccccc12	98	83	x	104
COc1ccc(CNCC2COc3ccccc3O2)cc1OC (stereo not given)	120	100	-1	x
Cn1c(=O)oc2cc(S(=O)(=O)N3CCCC(C(=O)NN4CCOCC4)C3)ccc21 (stereo not given)	91	91	x	104
CCSc1nnc(SC(C)C(=O)Nc2ccc(C#N)cc2)s1 (stereo not given)	78	88	4	x
COc1ccc(-c2noc(-c3ccc(N4CCN(C)CC4)c([N+](=O)[O-])c3)n2)cc1	102	89	-30	100
CCCc1nnc(NC(=O)c2nc(S(=O)(=O)Cc3ccc(C)cc3)ncc2Cl)s1	4.1*	20*	-50	96
COc1ccc(NC(=O)CN2C(=O)COc3ccc(S(=O)(=O)N4CCCCC4)cc32)cc1OC	96	79	x	101
COc1ccccc1OCc1cccc(C(=O)N2CCCCCC2)c1	90	71	-11	102
c1ccc(OCc2nnc3n2CCCCC3)cc1	93	86	-35	102
Cc1ccc(OCCCn2c(C(C)O)nc3ccccc32)cc1 (stereo not given)	x	x	-16	104
Cc1nn(C(C)C(=O)NC2CCC(C)CC2)c(=O)c2cc3sccc3n12 (stereo not given)	106	82	-13	106
CCC(C)C(=O)Nc1nccs1 (stereo not given)	110	90	-16	x

Seven compounds drawn at random from those above, as already listed:
SMILES	Sa growth inh	Sa growth inh second temp	HCMV UL50-53 inh	GIV-Gai inh
CCC(C)C(=O)Nc1nccs1 (stereo not given)	110	90	-16	x
COc1ccc(-c2noc(-c3ccc(N4CCN(C)CC4)c([N+](=O)[O-])c3)n2)cc1	102	89	-30	100
COc1ccccc1OCc1cccc(C(=O)N2CCCCCC2)c1	90	71	-11	102
Cc1nn(C(C)C(=O)NC2CCC(C)CC2)c(=O)c2cc3sccc3n12 (stereo not given)	106	82	-13	106
CCCc1nnc(NC(=O)c2nc(S(=O)(=O)Cc3ccc(C)cc3)ncc2Cl)s1	4.1*	20*	-50	96
CCc1ccc(NC(=O)Cn2ncc3c2-c2ccccc2OC3)cc1	104	89	x	100
CCSc1nnc(SC(C)C(=O)Nc2ccc(C#N)cc2)s1 (stereo not given)	78	88	4	x

Additional compounds.
SMILES	Sa growth inh	Sa growth inh second temp	HCMV UL50-53 inh	GIV-Gai inh
COc1ccc(CN2CNc3nc4ccccc4n3C2)cc1	70	86	x	113
COc1ccc2c(COC(=O)c3c(-c4ccccc4)noc3C)cc(=O)oc2c1	87	93	-33	x
S=C(Nc1ccc(Cl)cc1)N1CCSC1c1ccc(Br)cc1 (stereo not given)	98	79	x	94
Cc1cc(C)n2nc(C)cc2n1	82	90	-24	102
O=C(c1ccc(CNS(=O)(=O)c2ccc(Br)cc2)cc1)N1CCc2ccccc21	87	81	x	107
O=C(Nc1ccc(F)cc1F)c1nc(-c2cccc(F)c2)n2c1CCCCC2	95	92	x	105
CC(C#N)(NC(=O)COc1ccc(C#N)cc1)C1CC1 (stereo not given)	89	91	-16	x
O=C(CSc1nc2c(c(=O)n1Cc1ccccc1)SCC2)NCc1ccco1	90	79	-55	105
CCOc1ccc(NC(=O)c2ccc(N3C(=O)NC4CC3(C)Oc3ccccc34)cc2)cc1 (stereo not given)	102	84	x	98
O=C(Cc1c(O)c2ccccc2[nH]c1=O)NCc1ccccc1Cl	89	87	x	96
COc1ccc(C(=O)Cn2nnc(-c3ccccc3)n2)cc1	85	84	-29	96
CCOC(=O)C1CCCCN1Cc1ccc(Br)cc1 (stereo not given)	114	101	-9	96
CN(C)c1ccc(C(=O)N2CCN(c3ccnc4cc(Cl)ccc34)CC2)cc1	93	92	-3	98
O=C(CCN1CCc2ccccc2C(O)(c2ccccc2)C1)c1ccc2c(c1)OCCO2 (stereo not given)	90	78	x	105
Cc1ccc(NC(=O)/C(C#N)=C/c2ccccc2Cl)cc1C	107	83	-4	101
CCN(CC)S(=O)(=O)c1ccc(NC(=O)CCn2c(=O)oc3ccccc32)cc1	100	96	3	103
COc1ccccc1OCc1nc(=S)[nH][nH]1	74	89	-2	x
CC(C(=O)Nc1ccc2c(c1)OCCO2)n1sc2ccccc2c1=O (stereo not given)	113	96	-22	97
Nc1c(-c2ccccc2)cnn1-c1ccc(C(=O)O)cc1	107	99	1	97
CC(C)NC(=O)CCCCn1c(=O)c2ccccc2n(CC(=O)Nc2ccccc2)c1=O	x	x	-32	102
CCOC(=O)COc1ccc(CC)cc1C(=O)c1ccn2nc(-c3ccc(Cl)cc3)cc2n1	85	86	-9	107
N#CC1=C(N)Oc2n[nH]c(-c3ccccc3)c2C1C1CC=CCC1 (stereo not given)	81	101	-3	x
CC(OC(=O)c1ccccn1)C(=O)Nc1ccc(C(F)(F)F)cc1 (stereo not given)	87	96	-5	x
CCN(C(=O)c1cnc(OC)cc1C(F)(F)F)c1ccc(Cl)cc1	122	97	-2	106
Nn1nnc2ccccc21	x	x	-29	104
CC1=C(C)CC(C(=O)Nc2ccc(NC(=O)NC3CCCCC3)cc2)C(C(=O)O)C1 (stereo not given)	107	78	-17	99
COc1cc(/C=[N+](/C)[O-])ccc1OCc1ccc(F)cc1	x	x	-62	100
O=C(NCCn1c(-c2ccncc2)nc2cccnc21)Nc1ccc(Cl)cc1	x	x	-1	107
Cc1nc2nc(CN(C(=O)C(C)C)c3ccccc3)nn2c(C)c1Cl	x	x	-29	105
O=C(c1cc(-c2ccccc2)nc2ccccc12)N1CCN(c2ccc(F)cc2)CC1	x	x	-13	104
CC(C)c1ccc(NC(=O)Cn2nnc(C(=O)Nc3cccc(F)c3)c2N)cc1	x	x	-3	99
Cc1ccc2c(=O)cc(C(=O)Nc3ccc(F)cc3)oc2c1	x	x	-7	101
Cc1ccc(CN2c3ccccc3OCC2CC(=O)Nc2nccs2)cc1 (stereo not given)	x	x	-9	111
CCOc1ccc(S(=O)(=O)NCCc2c(C)[nH]c3c(Cl)cccc23)cc1C	98	85	5	98
COc1cccc(NC(=O)N(Cc2cn(C)c3ccccc23)C2CCCCCC2)c1	111	93	-20	103
COc1ccc(S(=O)(=O)c2c(Nc3ccc(C)cc3C)sc(C(=O)c3ccc(F)cc3)c2N)cc1	118	100	x	114
O=C1C(O)C(O)C(=O)N1Cc1ccccc1 (stereo not given)	79	93	-4	x
COC(=O)CN(Cc1ccccc1)S(=O)(=O)c1ccc(C)cc1	90	70	x	103
COc1ccc(CCNc2nc3c(-c4cccc(F)c4)nnn3c3ccccc23)cc1OC	108	89	-20	104
N=C1c2ccccc2CN1CCN1C(=O)S/C(=C\c2ccc(F)cc2)C1=O	71	90	-54	x
CNc1c(NC(=O)C2CC(=O)N(c3ccccc3)C2)c(=O)oc2ccccc12 (stereo not given)	93	81	x	104
c1ccc(Cn2c(C3CCCO3)nc3ccccc32)cc1 (stereo not given)	98	82	-14	102
COC(=O)/C=C1\SCC(=O)N1CC(=O)c1ccccc1	105	103	18	x
O=C(O)COc1ccc(/C=C2\C(=O)NC(=O)N(c3ccc(F)cc3)C2=O)cc1Br	x	x	-19	103

Source: PubChem BioAssay
